Beta2AR agonist: beta2AR agonists driving receptor internalization, primary screen, cell-based, FAP fluorogen, flow cytometry; Beta-2 adrenergic receptor (Homo sapiens), P07550; Am2.2-beta2AR cells; reference of the scale not given here; response, % (no concentration beside the values); 340,000 compounds, 0.43% hits; AID 504454, 2011;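 active = response above a set limit, near 3 SD of response in nonfluorescent compounds, cut at about 42% in these data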;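 also: stock transfer was 100 nL into about 11 µL; a reference agonist was the positive control; negative values mostly stem from fluorescent compounds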
T cruzi inh: inhibitors of intracellular T. cruzi growth, primary screen, luminescence, NIH3T3 host cells | T. cruzi beta-gal in NIH3T3, 90 h | inhibition, % (test concentration not listed) | 300,000 compounds, 1.4% hits;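 active = mean inhibition across valid replicates above about 55%, limit read from the data; inconclusive = mean below that limit but half or more replicates reach it; inactive = mean below it, under half of replicates reach it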;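 also: signal also drops with host cell toxicity which is not excluded here; 0% = plate median of DMSO wells and 100% = zero luminescence signal; higher percent means less beta-gal luminescence so fewer parasites; stock transfer was 50 nL into about 50 µL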
ALR H2O2 inh: inhibitors of human ALR sulfhydryl oxidase, primary screen, biochemical, H2O2 detection, HRP-luminol luminescence, single point | FAD-linked sulfhydryl oxidase ALR (Homo sapiens), P55789 | purified ALR, DTT oxidation | inhibition, % (concentration not given with the values) | 290,000 compounds, 3.8% hits;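 active = mean and each replicate at 75% or more; inconclusive = only one of the two met; inactive = neither met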;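 also: stock transfer was 7.5 nL into about 7.5 µL; 0% = neutral wells and 100% = wells with inactivated enzyme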
Beta cell apopt: inhibitors of cytokine-induced beta cell apoptosis, primary screen, luminescence; protection from apoptosis, % (no concentration beside the values); 300,000 compounds, 0.8% hits; INS-1E cytokine-induced death, ATP luminescence, 48 h; percent of positive-control rescue, neutral wells zero;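 active = all replicates at 75% or more, or half of them and the mean; inconclusive = half reach 75% but not the mean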;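 also: 0% = cytokine-treated negative control wells and 100% = positive control rescue; higher means more ATP so stronger rescue from cytokine killing; wells of about 40 µL received 100 nL stock; the first replicate is given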
LANA-H2B inh: blockers of LANA interaction with H2A/H2B – biochemical, FP readout, HTS, primary screen; inhibition, % (concentration not given with the values); AID 2629, 2010; cell-free LANA-H2A/H2B peptide, fluorescence polarization; Protein LANA1 (Human herpesvirus 8 type P (isolate GK18)), Q9QR71; 320,000 compounds, 0.6% hits; in the data active = inhibition mostly above about 10%, no sharp cut-off; inactive = mostly below about 6.7%;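 also: stock transfer was 7.5 nL into about 10 µL; 0% = median of vehicle wells and 100% = median of positive control wells; one replicate is shown; the record names a cut of 25% in any replicate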
Target sequence (Q9QR71 whole entry, looked up): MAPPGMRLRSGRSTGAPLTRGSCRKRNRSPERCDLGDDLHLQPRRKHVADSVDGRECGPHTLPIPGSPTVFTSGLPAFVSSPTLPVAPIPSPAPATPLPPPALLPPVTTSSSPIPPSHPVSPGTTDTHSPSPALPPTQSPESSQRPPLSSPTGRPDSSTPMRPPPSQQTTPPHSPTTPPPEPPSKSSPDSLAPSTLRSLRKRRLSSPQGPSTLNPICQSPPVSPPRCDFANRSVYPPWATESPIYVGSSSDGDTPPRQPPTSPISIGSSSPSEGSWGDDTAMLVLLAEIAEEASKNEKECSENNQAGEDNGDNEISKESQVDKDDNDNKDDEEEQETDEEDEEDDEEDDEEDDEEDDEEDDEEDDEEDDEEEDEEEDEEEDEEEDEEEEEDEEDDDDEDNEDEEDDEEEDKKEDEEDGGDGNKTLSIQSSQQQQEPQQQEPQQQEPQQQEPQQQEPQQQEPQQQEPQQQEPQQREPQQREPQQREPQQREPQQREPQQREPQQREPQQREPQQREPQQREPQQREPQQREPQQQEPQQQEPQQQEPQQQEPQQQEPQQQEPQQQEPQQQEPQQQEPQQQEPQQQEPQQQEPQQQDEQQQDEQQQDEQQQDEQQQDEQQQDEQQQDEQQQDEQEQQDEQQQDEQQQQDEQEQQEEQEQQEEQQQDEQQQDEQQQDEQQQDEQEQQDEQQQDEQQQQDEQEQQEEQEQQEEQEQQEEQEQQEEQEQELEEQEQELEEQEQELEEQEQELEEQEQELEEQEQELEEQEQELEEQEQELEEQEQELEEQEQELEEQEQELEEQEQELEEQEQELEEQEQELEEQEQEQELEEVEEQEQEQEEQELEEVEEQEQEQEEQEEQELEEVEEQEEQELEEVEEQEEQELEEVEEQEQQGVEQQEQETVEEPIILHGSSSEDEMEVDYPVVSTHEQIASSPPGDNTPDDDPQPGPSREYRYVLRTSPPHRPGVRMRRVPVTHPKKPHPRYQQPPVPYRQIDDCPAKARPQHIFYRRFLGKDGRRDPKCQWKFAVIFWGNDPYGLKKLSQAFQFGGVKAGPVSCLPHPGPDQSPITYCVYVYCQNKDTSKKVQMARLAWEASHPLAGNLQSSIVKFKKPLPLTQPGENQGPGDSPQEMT
Bfl-1 A1 inh: caspase 3/7 activation in MEF A1-2A-BIM cells, primary screen, A1 inhibitor project, cell-based, luminescence, HTS | Caspase-Glo 3/7 luminescence, 3 h; percent of clofoctol response, vehicle zero | caspase activation, % (test concentration not listed) | 330,000 compounds, 0.066% hits | AID 2462, 2010;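 active = over half of replicate activation scores above 10%, or exactly half above 10 with the replicate mean above 10; inconclusive = replicate mean below 10 yet half the replicates above 10; inactive = over half of replicates below 10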;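 also: wells of about 30 µL received 50 nL stock; many hits fall short of the cut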
Ecoli rRNA inh: reduced GFP signal of wild-type E. coli, primary screen, bacterial rRNA inhibitor project, GFP/RFP fluorescence, OD600, single point; E. coli WT GFP vs humanized-ribosome RFP mutants, 24 h; stronger effect = lower value; DMSO median 0, no signal -100; GFP signal change (wild-type ribosome), % (concentration not given with the values); 350,000 compounds, 1.6% hits; AID 720706, 2013;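 active = significant combined selectivity score with lowered wild-type GFP, culture density cut under 30%, mutant RFP and density less affected; inactive = any of these conditions unmet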; also: one replicate is shown; some compounds called inactive have numbers as strong as hits
Calb FLC: C. albicans growth inhibition with fluconazole, primary screen, CaCi-2 strain, Alamar Blue fluorescence. C. albicans CaCi-2 (fluconazole-resistant clinical isolate) + fluconazole, 48 h. growth inhibition, % (test concentration not listed). 300,000 compounds, 0.57% hits;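 active = most replicates above 75%; inconclusive = exactly half above 75%; inactive = most below 75%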;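 also: all wells also contain fluconazole at 8 µg/ml as a sub-toxic cotreatment; 0% = median of DMSO wells and 100% = median of geldanamycin control wells; wells of about 8 µL received 7.5 nL stock; the first replicate is given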
Ecoli rRNA inh OD600: further read-out of Ecoli rRNA inh, marked with its call; OD600 change, %; measured here: OD600 growth;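 optical density of the mix in the first replicate; 0 = DMSO median and -100 = no signal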
Ecoli rRNA inh RFP: second read-out of Ecoli rRNA inh, no call of its own (marks repeat the call); RFP signal change, %; measured here: RFP humanized mutant strains;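 first replicate; 0 = DMSO median and -100 = no signal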
Starred values were filed as active, the others as inactive; ? = inconclusive; / = no result given.

compound	Beta2AR agonist	T cruzi inh	ALR H2O2 inh	Beta cell apopt	LANA-H2B inh	Bfl-1 A1 inh	Ecoli rRNA inh	Ecoli rRNA inh OD600	Ecoli rRNA inh RFP	Calb FLC
CCCc1cc(-c2nc(-c3ccc(Cl)cc3)cs2)ccn1	-4	3	-11	6	-11	0.0	/	/	/	10
CC1CCN(C(=S)NC(=O)c2ccco2)CC1	-3	-22	49	/	1.3	0.4	13	14	0.0	3
CCCS(=O)(=O)N1CCC(C(=O)NC2CCC(C)CC2)CC1 (stereo not drawn)	-3	-11	/	1	-2.0	-0.3	/	/	/	1
O=C(Nc1ccc(S(=O)(=O)NCC2CCCO2)cc1)c1ccc(F)cc1 (stereo not drawn)	-4	-5	-7	15	2.4	-0.3	2	4	-5.0	-3
COc1cc(CNCc2cccs2)ccc1OCc1cccs1	-1	17	1	/	-1.7	1.0	/	/	/	-26
CCNC(=O)CN(c1ccc(C)cc1)S(=O)(=O)c1ccc(SC)cc1	-5	-2	-5	-4	1.4	1.4	/	/	/	-15
COC(=O)c1ccc(C(c2c(C)[nH][nH]c2=O)c2c(C)[nH][nH]c2=O)cc1	0	-6	30	-11	1.7	1.2	12	13	-2.9	-2
O=C(NNS(=O)(=O)c1ccc(Br)cc1)c1sccc1-n1cccc1	0	-11	46	-2	2.6	-0.7	-32	-43	-7.4	?
Cc1cc(C(=O)COc2ccc(C#N)cc2)c(C)n1-c1ccc2c(c1)OCO2	-3	-34	-27	1	1.8	-0.3	0	5	-2.8	-3
O=C(COc1cccc(C(F)(F)F)c1)Nc1cccnc1	0	-9	-7	-2	2.5	-0.6	1	0	-2.4	0
COc1ccccc1CC(=O)NC1CCCc2ccccc21 (stereo not drawn)	2	2	-25	2	2.9	2.4	-11	-9	1.3	-7
Cc1ccc(NC(=O)OCc2cncs2)cc1	5	3	/	-5	1.2	-1.9	1	6	-2.4	-4
O=C(O)c1ccccc1CSc1ncccc1C(=O)O	3	-5	11	-4	-2.7	1.9	12	14	-6.9	1
CC1CCN(CCC(=O)Nc2ccc3c(c2)OCCO3)CC1	/	-8	2	-5	-8.2	0.8	/	/	/	-10
CC(C)OP(=O)(c1ccc(N(C)C)cc1)C(O)c1ccccc1 (stereo not drawn)	-1	-2	-1	-6	-4.1	0.2	/	/	/	98*
COc1ccc(OC)c2c(C)c(C)[nH]c12	1	33	64	-2	-2.6	0.3	11	8	0.5	/
COc1cc(/C=C2\C(=N)N3N=CSC3=NC2=O)ccc1OS(=O)(=O)c1ccccc1[N+](=O)[O-]	4	-4	63	-1	-1.7	-0.1	-18	-7	-6.0	5
CCCCCCCCCC[n+]1cccc2c3ccccc3ccc21	-4	70*	/	/	/	/	-56	-81	-22	101*
O=C(Nc1cccc(-c2nc3ncccc3o2)c1)c1sc2cc(Cl)ccc2c1Cl	42*	8	0	11	-2.0	-0.4	11	17	-6.5	-8
COc1cc(NC(=O)Nc2ccc(Cl)c(Cl)c2)c(C(=O)O)cc1OC	10	10	17	-4	-2.4	0.1	-40*	-25*	-2.9*	9

The list continues.
compound	Beta2AR agonist	T cruzi inh	ALR H2O2 inh	Beta cell apopt	LANA-H2B inh	Bfl-1 A1 inh	Ecoli rRNA inh	Ecoli rRNA inh OD600	Ecoli rRNA inh RFP	Calb FLC
CCOC(=O)CN1C(=O)N[C@@H](c2cccc(C(F)(F)F)c2)C(C(=O)OC)=C1C	1	-2	-8	0	-2.1	0.7	5	-2	0.3	7
O=C(c1noc2c1CCCCC2)N1CCOCC1	3	-15	0	-4	-12	0.5	12	10	1.9	-6
CNC(=S)Nc1cc2oc3ccccc3c2cc1OC	1	-21	29	1	3.4	0.7	6	10	0.3	?
NCCSC1CC(=O)N(Cc2ccc(F)cc2)C1=O (stereo not drawn)	-1	-11	0	-2	-2.6	0.1	7	8	-11	0
CCCNC(=O)[C@@H]1CCCN1C(=O)C1CCN(S(=O)(=O)c2ccc(C)cc2)CC1	2	-1	0	-4	-0.2	-0.9	0	-1	-2.7	/
O=C(CSc1nc2ccccc2c(=O)n1Cc1ccc(Cl)cc1)NCc1cccs1	-8	17	/	14	4.7	0.4	2	6	-2.1	-5
CCSC1=NCCN1S(=O)(=O)c1ccccc1	0	-14	-2	-4	-0.4	-0.2	4	11	2.2	-20
CCC1CCCCN1CCCNC(=O)CN1C(=O)CSc2ccc(S(=O)(=O)N3CCOCC3)cc21 (stereo not drawn)	-9	-4	-2	4	3.5	-0.9	18	3	0.9	3
O=C(c1cc(S(=O)(=O)N2CCN(c3ccccc3)CC2)ccc1Cl)N1CCCCCCC1	3	22	-2	21	0.3	0.7	-9	-10	-0.3	1
CCOc1ccc(NC(=O)COC(=O)c2cc(C)oc2C)cc1	0	/	-2	6	1.4	1.8	11	13	0.3	/
COc1ccc(-c2cn(-c3ccc(OC)cc3)c3[n+]2-c2ccccc2CC3)cc1	-8	37	31	132*	2.6	0.7	-56	-79	-27	0
O=C(NCSc1ccccc1)c1ccccc1	-6	-16	-4	-6	-2.9	-3.3	9	29	5.9	-3
CCCn1c(C)cc(C(=O)COC(=O)c2nccnc2N)c1C	-5	9	-1	-2	12	-2.9	10	10	5.3	-11
CCc1ccc(-c2nc(CS(=O)CC(=O)NCCc3ccccc3)c(C)o2)cc1 (stereo not drawn)	-1	-8	99*	-7	6.9	0.9	2	6	4.6	0
Cc1ccc2c(C)c(C(=O)N(C)Cc3nccn3C)oc2c1C	4	-14	1	-18	-0.9	0.3	-2	-6	-1.5	-5
CN1CCN(C(=O)Nc2ccc3c(c2)N(C)C(=O)c2ccccc2S3)CC1	9	24	-14	-12	-0.9	0.7	7	-6	-9.0	2
COc1ccc(-n2nc(C(=O)NCC(=O)NCCN(C)C)c3ccccc3c2=O)c(OC)c1	6	-11	-2	-3	0.8	0.7	30	17	3.5	-1
CCC(C)NCCOCCOc1ccc(F)cc1 (stereo not drawn)	1	55*	/	-8	3.8	0.6	/	/	/	4
CC1CCCC(C)N1/N=C/c1ccc(O)cc1 (stereo not drawn)	3	10	94*	-3	1.5	0.0	-17	-28	-0.3	-5
CSCCC(NC(=O)C1CCC(C)CC1)C(=O)OCC(=O)c1ccc(Cl)cc1 (stereo not drawn)	3	-10	-11	-17	6.6	0.9	3	10	-1.1	19

Remaining list, next part.
compound	Beta2AR agonist	T cruzi inh	ALR H2O2 inh	Beta cell apopt	LANA-H2B inh	Bfl-1 A1 inh	Ecoli rRNA inh	Ecoli rRNA inh OD600	Ecoli rRNA inh RFP	Calb FLC
O=c1c2c(-c3ccco3)csc2nc(SCc2cn3cccnc3n2)n1-c1ccccc1	-4	20	8	0	3.5	0.4	/	/	/	-2
COc1ccc(/C=C/C(=O)Nc2ccc(OC)nc2)cc1	4	-4	-5	-11	2.5	-0.4	-14	-8	-4.1	?
C/C(=N\NC(=O)c1cccc(S(=O)(=O)Nc2ccccc2Cl)c1)c1ccc(-n2ccnc2)cc1	10	18	2	-1	2.6	0.4	/	/	/	-4
CSc1nsc(SC)c1C(=O)N1CCN(S(=O)(=O)c2ccc(C)cc2)C1C(C)C (stereo not drawn)	10	7	5	-4	16	0.5	/	/	/	-3
CC(C(=O)NCCN1CCOCC1)(c1ccccc1)c1ccccc1	-3	-12	/	-4	1.4	0.1	9	1	0.8	4
CCn1c(C(=O)O)c(CC(=O)Nc2ccccc2OC)c2ccccc21	9	-3	2	-3	-2.6	0.6	-16	-20	-9.1	-12
O=C(CC1C(=O)NCCN1Cc1ccoc1)NCCc1ccc(Cl)cc1 (stereo not drawn)	-8	-16	2	/	-4.5	0.7	10	1	4.2	3
CN1CCN(C(=S)c2ccc(Cl)cc2)CC1	2	-9	-1	-4	0.9	0.2	/	/	/	-4
OC1(c2ccc(F)cc2)CSC(=Nc2cccnc2)N1Cc1ccco1 (stereo not drawn)	1	-12	-33	-4	-6.6	0.6	-60	-79	-20	21
COCCN(CC1CCCN(C2Cc3ccccc3C2)C1)C(=O)CSC (stereo not drawn)	0	33	-9	/	-8.3	0.0	10	8	1.2	-3
CC(C)(C)c1ccc(C(=O)NNC(=S)NCc2ccco2)cc1	2	-15	0	-1	-0.6	1.2	-31	-43	1.7	-6
COc1ccc(NC(=O)c2nc3nc(C)cc(C(F)F)n3n2)cc1OC	-14	-8	/	-2	-0.9	-0.6	-2	6	5.0	0
COc1ccc(C(CCN2CCOCC2)c2c(O)cc(OC)cc2OC)cc1 (stereo not drawn)	-1	-14	/	-5	1.3	-0.9	8	10	-7.7	-12
COc1ccc2[nH]c3nc(SCC(=O)NNC(=O)c4ccc(OC)c(OC)c4)nnc3c2c1	14	-9	2	0	1.6	-0.7	/	/	/	14
Cc1csc(SCC(=O)NC(=O)Cc2ccccc2)n1	2	-29	/	4	1.7	0.1	/	/	/	6
CCCCN1C(=O)NC(c2ccc(OC)cc2)C(C(=O)OCc2ccccc2)=C1C (stereo not drawn)	-5	34	-1	2	-2.5	-0.2	-3	-8	8.4	-3
Cc1ccc2c(Cl)cc(Cl)c(OCC(=O)NC(C)(C)C)c2n1	11	-16	/	-8	-1.1	-2.0	-53	-76	-22	-7
Cc1nnc(NC2=NCCCCC2)o1	-1	-7	-1	-3	4.0	0.3	/	/	/	?
Clc1ccccc1-c1ccc(CN2CCN(c3ccccc3)CC2)o1	5	3	-4	-5	-6.9	-0.1	/	/	/	-6
O=C(CSc1nnc(C2CCCCC2)o1)Nc1ccccc1Cl	-7	-7	-2	-3	-4.7	-2.2	-6	-7	-1.8	-1

Next part
compound	Beta2AR agonist	T cruzi inh	ALR H2O2 inh	Beta cell apopt	LANA-H2B inh	Bfl-1 A1 inh	Ecoli rRNA inh	Ecoli rRNA inh OD600	Ecoli rRNA inh RFP	Calb FLC
CC1CCN(CCCCOc2cccc(Br)c2)CC1	8	10	-1	-3	2.9	0.7	/	/	/	9
CC1CCCN(c2nc3c(c(=O)[nH]c(=O)n3C)n2CCSc2nc3ccccc3o2)C1 (stereo not drawn)	-22	11	/	-5	1.0	0.6	-1	-3	3.0	-4
COc1cc([C@@H]2OC[C@@H]3[C@H]2CO[C@@H]3c2ccc3c(c2)OCO3)ccc1O	0	/	13	5	-8.5	1.1	-6	-11	-8.2	/
Cc1ccc(NC(=O)CSCC(=O)OC(C)C(=O)Nc2ccc(S(N)(=O)=O)cc2)c(C)c1 (stereo not drawn)	3	4	?	-8	8.7	0.2	3	5	-2.6	-1
CC[C@]12C(=O)N(C)C[C@H]([C@@H]3C(=O)N(C)C(=O)[C@@H]31)N2C(=O)c1ccc(C(F)(F)F)cc1	2	/	-7	-8	-0.8	0.5	6	11	-0.3	/
O=C(c1ccc2c3c(cccc13)CC2)N1CCOCC1	-13	-2	-11	-4	1.0	-1.2	/	/	/	-2

Not all compounds are listed; count on the stated rates, not on these rows.
